Bioassay records from PubChem.
Calb biofilm kill: mixture kills Candida albicans biofilm cells; inhibition, % at 7.6 µM; AID 1242; C. albicans biofilm persisters + clotrimazole, fluorescence viability; primary screen in compound mixtures of four per well; 120,000 compounds, 0.02% hits;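 active = inhibition above 30.3% in the primary screen of four-compound pools, then above 30% when the compound was retested; inconclusive = passed the primary limit but could not be retested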;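 also: compounds exposed to preformed 24 h biofilms for 48 h; the number belongs to the whole pool; some results filed as inactive read as strong as hits; inactives centre near 12; 0% = biofilm with clotrimazole alone and 100% = kill control; retested singly at about 60 µM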
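Assay system: C. albicans biofilms / Medium: RPMI/MOPS medium, pH 7.0 / Schedule: biofilm formation 24 h, compound exposure 48 h, 37 °C / Measured by: Alamar Blue fluorescence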
* = called active by the depositor; ? = inconclusive; & = joins results of further samples. Some of the compounds tested; count on the stated rates, not on these rows.

nr	molecule	Calb biofilm kill
1	COc1cc(C(=O)Nc2nnc(C3CC3)s2)ccc1OCc1c(C)noc1C	4.3
2	CSc1nc(Cc2ccccc2)cc(=O)[nH]1	14.0
3	CCS(=O)(=O)c1ccc(OC)c(N=Nc2ccc(O)c3ncccc23)c1	15.9
4	CNCCOc1nc(N2CCOCC2)nc(C)c1[N+](=O)[O-]	6.6
5	CC(C)CC(=O)NC(=S)Nc1ccc(S(=O)(=O)NC(C)(C)C)cc1	8.4
6	COc1ccc(C2CC(=O)Oc3cc(O)cc(O)c32)cc1 (stereo unspecified)	24.6
7	CC(=O)C1=C(C)N(Cc2ccccc2)C(=O)N[C@H]1c1cccc(C(F)(F)F)c1	7.9
8	O=C(COc1ccc(Br)cc1Cl)NC(=O)Nc1ccc2c(c1)OCCO2	6.5
9	Cc1cc(Nc2cccc(Cl)c2)nc(NCc2ccccc2)n1	11.5
10	CSC1=NC2(CCCCC2)C2=C(CCCC2)N1	9.8
11	CCN(CC)C(=S)SCC(=O)Nc1ncc2c(n1)CCCC2=O	17.4
12	O=C(COC(=O)c1ccccc1NS(=O)(=O)c1cccs1)NC1CCCCC1	12.9
13	CCCCCC(=O)NC(NC(=S)N1CCOCC1)C(Cl)(Cl)Cl (stereo unspecified)	8.1
14	CCOC(=O)CSc1nc2c(sc(=S)n2-c2ccccc2)c(=O)[nH]1	7.7
15	O=C(Cn1cnc2c(nnn2-c2cccc(Cl)c2)c1=O)NCc1ccccc1	15.1
16	CN(C)CC(C)(C)CNC(=S)Nc1ccc(S(=O)(=O)N2CCOCC2)cc1	5.6
17	Cc1cccc(NC(=O)c2c([N+](=O)[O-])c(C(C)(C)C)nn2C)c1	-0.4
18	CNCc1cc(Cl)cc(OC)c1OC(C)C	9.3
19	COc1ccc(C(=O)NNC(=O)C(=O)NCc2ccccc2)cc1	14.4
20	O=C(NC(=S)Nc1cccc(Cl)c1N1CCCCC1)c1ccc2c(c1)OCCO2	11.5
21	COc1cccc(COCCN2CCN(S(=O)(=O)c3ccc(C)cc3)CCC2=O)c1	16.9
22	COc1ccc(/C([O-])=C(/C(=S)Nc2ccc(C)c(C)c2)n2c[n+](C)c3ccccc32)cc1OC	-1.5
23	Cc1cc(=O)c(C(=O)O)cn1-c1ccc(C(C)C)cc1	18.8
24	COc1cc(C)c(/C=C(\C#N)C(=O)Nc2cccc(C)c2)cc1C(C)C	13.6
25	O=c1c2c(nc3nc(NCc4ccc(Cl)cc4)[nH]n13)CCC2	11.7
26	O=C(CNC(=O)C12CC3CC(CC(C3)C1)C2)OCc1cc(=O)n2cc(Br)ccc2n1	11.7
27	S=c1[nH]c2cc(-c3ccccc3)ccc2o1	10.2
28	COc1ccc(N2CCN(C(=O)c3ccc4c(Cl)c5c(nc4c3)CCCC5)CC2)cc1	14.0
29	O=C1CC(Nc2cc(=O)[nH]c(=O)[nH]2)C(=O)N1c1ccccc1Cl (stereo unspecified)	21.4
30	CCOC(=O)c1sc(NC(=O)CCCn2nc([N+](=O)[O-])c(Cl)c2C)c(C(=O)OCC)c1C	20.3
31	COC(=O)c1sc2nc(SCc3ccccc3C)n(N)c(=O)c2c1C	12.9
32	CCOC(=O)c1c(NC(=O)C2C3C=CC(C3)C2C(=O)O)sc2c1CCC(CC)C2 (stereo unspecified)	12.6
33	CCOC(=O)C1=C(C)NC(=O)NC1c1cccs1 (stereo unspecified)	19.4
34	Cc1ccccc1/C=C1\SC(=S)N(/N=C/c2cc([N+](=O)[O-])ccc2O)C1=O	21.6
35	O=[N+]([O-])c1ccc(Nc2ccccc2)nc1	8.3
36	CC1CN(C(=S)c2cccc([N+](=O)[O-])c2)CC(C)O1 (stereo unspecified)	18.1
37	Cc1cc2ncc(S(=O)(=O)c3ccccc3)c(N)n2n1	13.8
38	COc1ccc(C(C(=O)NCC2CCCO2)N(C(=O)CNC(=O)c2cccs2)c2ccccc2C)cc1OC (stereo unspecified)	17.4
39	CC(OC(=O)c1cc2c(s1)CCCCC2)C(=O)NC(N)=O (stereo unspecified)	28.7
40	Cc1ccc(NC(=O)CSc2nc(C)c(Cc3ccccc3)c(=O)[nH]2)cc1	8.0

Results in sequence from the list.
Calb biofilm kill for nos. 29–37, in order: 21.4, 20.3, 12.9, 12.6, 19.4, 21.6, 8.3, 18.1, 13.8

Later entries
nr	molecule	Calb biofilm kill
41	O=C(c1cc(COc2ccc3ncccc3c2)on1)N1CCCC(O)C1 (stereo unspecified)	16.1
42	Cc1cc(Br)ccc1SCC(=O)Nc1cccnc1	6.8
43	O=C(COC(=O)c1cccnc1Cl)NCc1ccc2c(c1)OCO2	9.1
44	C=CCn1cccc(C(=O)Nc2ccc(OC)cc2)c1=O	6.3
45	Cc1csc(NC(=O)c2nn(C)c(C)c2[N+](=O)[O-])n1	8.2
46	COc1cccc(-n2nc3c(=O)n(Cc4ccccc4Cl)nc(C)c3c2C)c1	20.1
47	Cc1ccc(-n2c(SCC(=O)O)nc3sc4c(c3c2=O)CCCC4)cc1	14.0
48	O=C(Nc1cccnc1)c1ccc2nc(-c3ccccc3)c(-c3ccccc3)nc2c1	9.7
49	CCN1CCCC1Cn1cnc2c([nH]c3ccc(OC)cc32)c1=O (stereo unspecified)	17.5
50	NC(=O)c1c(N)sc2c1CCC2	1.9
51	Cn1cc2c(=O)n(/N=C/c3ccccc3)cnc2n1	-7.1
52	CCN(CC)C(=O)NC1CC(=O)N(c2ccc(OC)cc2)C1 (stereo unspecified)	11.1
53	COC(=O)c1cccn(CC(=O)c2ccc(Cl)cc2)c1=O	14.3
54	O=C(CSc1ccccn1)Nc1ccc(F)c([N+](=O)[O-])c1	17.5
55	O=C(c1ccc(Cl)c([N+](=O)[O-])c1)N1CCN(c2ccccc2)CC1	16.6
56	COc1cc(C)c(Br)cc1S(=O)(=O)NCCCN1CCOCC1	11.0
57	COC(=O)c1ccc(S(=O)(=O)N(CCO)Cc2ccccc2)n1C	18.5
58	COC(=O)c1sc(-c2cccs2)cc1NC(=O)/C=C/C(=O)O	-0.2
59	NNc1nc(-c2ccccc2Cl)nc2sc3c(c12)CCCC3	9.0
60	O=[N+]([O-])c1cccc(-c2nnc(SCc3cccnc3)o2)c1	18.1
61	COc1ccccc1N1CCN(C(=O)Cn2cnc3c2c(=O)n(C)c(=O)n3C)CC1	1.0
62	CCN(CC)c1nc(-c2ccccn2)nc(-c2ccccc2)c1C#N	11.1
63	CCSc1nc(-c2ccccc2)c2cc(Cl)ccc2n1	27.5
64	O=C(NN=C1C2CC3CC(C2)CC1C3)c1cccc(S(=O)(=O)N2CCOCC2)c1	14.1
65	CCO[C@@H]1OC(C(=O)N2CCCCCCC2)=C[C@H](C2CCCCC2)[C@H]1CCCO	16.3
66	COC(=O)CNC(=O)COC(=O)c1ccc(OC)c([N+](=O)[O-])c1	12.2
67	Cn1nnnc1Sc1ccc(C(=O)O)cc1[N+](=O)[O-]	23.6
68	COc1cccc(-c2cc(C(F)(F)F)nc(-n3cc(C)cn3)n2)c1	12.3
69	COC(=O)c1cc(C)cc(=O)o1	16.9
70	Fc1cccc(NC(=S)NCc2ccccn2)c1	11.7
71	COc1ccccc1N1CCN(C(=O)NC23CC4CC(CC(C4)C2)C3)CC1	7.3
72	Cc1cc(NC(=O)CCOc2ccc(F)cc2)no1	27.7
73	O=C(CC1C(=O)NCCN1Cc1ccc(Cl)c(F)c1)NCC1CCOCC1 (stereo unspecified)	19.1
74	COc1cc2c(cc1OC)[C@H](Cc1ccc(O)cc1)NCC2	13.2
75	Cc1ccc(NC(=O)C2=C(c3ccccc3)S(=O)(=O)CCS2(=O)=O)cc1	?
76	CCOCCCNC(=S)N1C2CCC1CC(NC(=O)Nc1ccc(C(=O)OCC)cc1)C2 (stereo unspecified)	-8.7
77	O=C(Nc1ccc(F)c(F)c1)c1ccc(F)c(S(=O)(=O)N2CCC3(CC2)OCCO3)c1	15.3
78	Cc1ccc(N2CC(=O)Nc3c(sc4nc(C)cc(C)c34)C2=O)cc1	13.7
79	O=C(COc1ccc2c(C(F)(F)F)cc(=O)oc2c1)NCc1cccs1	6.4
80	Cc1nc(-c2nnc(SCC(=O)Nc3cc(C(F)(F)F)cc(C(F)(F)F)c3)n2C)cs1	18.5
81	O=C(CCCCCN1C(=O)c2cccc3cccc(c23)C1=O)NC1CCS(=O)(=O)C1 (stereo unspecified)	22.3
82	Cc1ccc([N+](=O)[O-])c(NC2OC(CO)C(O)C2O)c1 (stereo unspecified)	3.8
83	CCOC(=O)c1c(NCCN(C)C)c2ccccc2[nH]c1=O	24.8
84	COc1ccc2c(c1)c(=O)c(C(=O)c1ccc(Cl)cc1)cn2CC(=O)Nc1ccc(F)cc1	9.5
85	Cc1cccc2c1N(C(=O)CN1C(=O)c3ccccc3C1=O)C(C)(C)c1ssc(=S)c1-2	-0.2
86	c1ccc(-c2c[n+]3c(n2-c2ccccc2)SCC3)cc1	16.4
87	CCOC(=O)c1ccc(N/C=C\C(=O)c2cccc(OC)c2)cc1	11.1
88	CCOC(=O)c1c(NC(=S)NCC2CCCO2)sc(C)c1C (stereo unspecified)	-5.3
89	CCCCC/C=N\NC(=O)Cc1ccc([N+](=O)[O-])cc1	-2.4
90	COC(=O)c1ccc(NC(=O)CN2CCN(c3ccccn3)CC2)cc1	6.9
91	CC(NC(=O)COC(=O)/C=C/c1ccco1)c1ccccc1 (stereo unspecified)	8.4
92	O=Cc1ccc(-c2cc(Cl)ccc2Cl)[nH]1	2.7
93	Cc1ccc(OCCCN2CCOCC2)c([N+](=O)[O-])c1	9.6
94	CCN(CC)c1nc(Oc2ccc(C(=O)OC)cc2)nc(N2CCOCC2)n1	7.0
95	COc1ccc(CN2CCN(Cc3csc(C(C)=O)c3)CC2CCO)c(C)c1C (stereo unspecified)	-1.4
96	CCNC(=O)CN(c1ccccc1OC)S(=O)(=O)c1cccs1	4.3
97	CC(C)C(=O)Nc1ccc(N2CCCC2)c(Cl)c1	12.1
98	Cc1ccc(-c2nnc(SCC(=O)Nc3nccs3)n2N)cc1	12.0
99	O=C(CN1C(=O)NC2(CCCCCC2)C1=O)N1CCN(S(=O)(=O)c2ccccc2)CC1	10.8
100	COc1cccc(C2C=C(Nc3ccccc3)C(=O)N2c2ccccc2)c1 (stereo unspecified)	15.7

More entries.
nr	molecule	Calb biofilm kill
101	C=CCNC(=O)/C(=C\c1cccc([N+](=O)[O-])c1)NC(=O)c1ccccc1	11.7
102	Cc1[nH]c2ccccc2c1/C=C(/C#N)C(=O)NC(C)C	15.9
103	S=C(NC1CC2CCC1C2)N1CCN(c2cccc(Cl)c2)CC1 (stereo unspecified)	8.0
104	COCCNC(=O)Cn1c(=O)n(CCCCCC(=O)NCc2ccc3c(c2)OCO3)c(=O)c2sccc21	-15.2
105	NC(=O)COC(=O)/C=C/c1ccc2ccccc2n1	6.3
106	CC(=O)c1c(NC(=O)c2ccccc2)[nH]c(-c2ccccc2)nc1=S	9.6
107	O=C(C[n+]1ccc(-c2nnc3n2CCC3)cc1)c1ccc(Cl)c(Cl)c1	27.6
108	CC(C)C(=O)Nc1c(-c2ccccc2)c(=O)c2ccccc2n1C	16.7
109	O=[N+]([O-])c1cc(S(=O)(=O)NC2=NCCCCC2)ccc1NCC1CCCCC1	19.1
110	N#C/C(=C\c1ccncc1)c1nc2c(s1)CCCC2	-2.5
111	COc1cc(/C=N/NC(=O)c2ccc(-c3ccccc3)cc2)cc(OC)c1OC	7.5
112	COc1ccc(C(=O)COc2ncnc3cc(Cl)ccc23)cc1	26.1
113	O=C(CN1C(=O)CSc2ccc(S(=O)(=O)N3CCCCC3)cc21)NCc1cccnc1	-4.1
114	CN(C)c1ccc(P(=O)(OCc2ccccc2)C(O)c2ccccc2)cc1 (stereo unspecified)	9.6
115	Fc1cccc(C2CCCCN2Cc2nc(C3CC3)no2)c1 (stereo unspecified)	21.5
116	O=C(Cc1cc(=O)[nH][nH]1)N/N=C/c1c(Cl)cccc1Cl	3.9&7.3
117	Cc1ccc(OCC(=O)Nc2ccc(S(=O)(=O)Nc3ccccn3)cc2)cc1C	10.3
118	CCOC(=O)C1CCCN(C2CC(=O)N(c3ccc(C(C)C)cc3)C2=O)C1 (stereo unspecified)	0.0
119	Cc1ccc2c(c1)C(=O)c1ccccc1CS2=O (stereo unspecified)	9.7
120	COc1ccccc1NS(=O)(=O)c1cc(NC(=O)c2cc(=O)[nH]c3ccccc23)ccc1N1CCOCC1	11.8
121	CCc1nnc(NC(=O)c2ccc(OC)cc2)s1	7.3
122	O=[N+]([O-])c1ccc(Cl)c(S(=O)(=O)/N=C(/c2ccccc2)N2CCOCC2)c1	14.5
123	O=C(O)CCCC(=O)N1N=C(c2c(-c3ccccc3)c3cc(Cl)ccc3[nH]c2=O)CC1c1cccs1 (stereo unspecified)	6.6
124	CCC(=O)NNc1ncnc2c1cnn2-c1cccc(C)c1	7.3
125	O=c1c2cn[nH]c2[nH]c(=S)n1-c1ccccc1Cl	1.8
126	C[C@H](NC(=O)c1ccc(Br)cc1)C(=O)NCc1ccc(S(N)(=O)=O)cc1	7.7
127	O=C(CSc1nnc(NC(=O)c2c(F)cccc2F)s1)Nc1ccc(F)cc1	16.8
128	CCC(C(=O)OCC(=O)Nc1cccc(C(C)=O)c1)c1ccccc1 (stereo unspecified)	5.8
129	CC(=O)Nc1ccc(Cl)cc1C1COC(=O)C1=N (stereo unspecified)	4.6
130	O=C(O)CCNS(=O)(=O)c1ccc2c(c1)OCCCO2	32.7
131	COc1ccccc1/C=C/C(=O)NCc1cccnc1	9.6
132	COc1ccc(OC)c(NC(=O)c2ccc(-c3cccs3)cc2)c1	14.4
133	Cc1nnc2c3ccccc3c(-c3cccs3)nn12	19.9
134	CC(C)CN(CC(C)C)CC(O)COc1ccc([N+](=O)[O-])cc1 (stereo unspecified)	10.9
